MgrA DNA FP = modulators of Staphylococcus aureus MgrA DNA binding; fluorescence polarization; 84,000 tested, 0.13% active; inhibition, %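 (about 10 µg/mL by stock and volumes)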; AID 602314;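 active = above 50% in either of two replicates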;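 also: 0% = protein plus DNA without compound and 100% = DNA alone without protein; higher means less MgrA bound to DNA so lower polarization; one replicate is shown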
S aureus helic = blocks Staphylococcus aureus DNA helicase. purified S. aureus helicase, fluorescence unwinding assay; about half of the hits fall short of the stated cut. inhibition, %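 (tested at about 80 µM)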. AID 485395. 120,000 tested, 0.05% active;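 active = both duplicates at 50% or more, or one of them with a favoured structure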;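 also: 0% = mean of negative control wells and 100% = mean of positive control wells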
Numbers without * were called inactive; . = not tested or not shown; & = joins results of further samples. This is a subset. The share of hits here may be higher or lower than overall.

MgrA DNA FP	S aureus helic	Compound
.	-14.0	CC(C)n1c(O)c(N=NC(=O)C2CC2)c2ccccc21
-3.0	11.0	CCOc1ccc(NS(=O)(=O)N(C)C)cc1
.	-12.0	O=C(/C=C/c1ccco1)OCC(=O)c1ccccc1
0.2	11.0	O=C(C1CC1)N1CCc2cc(S(=O)(=O)N3CCCCC3)ccc21
0.1	-13.0	COC(=O)C(Cc1c[nH]c2ccccc12)NC(=O)c1ccc(OC)cc1 (stereo unspecified)
.	-3.0	CN1C(=O)/C(=C/C2=Cc3ccccc3OC2)SC1=S
.	15.0	COC(=O)C(C(=O)NCC1CCCO1)C1CCCC1 (stereo unspecified)
.	8.0	O=C(NCc1cccs1)C1CCCCC1
-3.1	5.0	CSc1nnc(C2CCCN(C(=O)Nc3ccc(Cl)c(C(F)(F)F)c3)C2)n1C (stereo unspecified)
-2.4	12.0	COc1ccc(C(=O)NCc2ccccc2)c(OC)n1
-1.9	-3.0	C1CCC2(C1)OCC(CN1CCOCC1)O2 (stereo unspecified)
-1.1	0.0	CCN1CCCC1CNCC(=O)Nc1ccc(C)c(Br)c1 (stereo unspecified)
-3.3	24.0	Cc1c2c(nc3nc4ccccc4n13)CC(C)(C)CC2=O
-2.0	.	O=[N+]([O-])c1ccc(NCCCCCO)nc1
13.2	-9.0	c1ccc(-c2cn3nc(-c4ccccc4)c(-c4ccccc4)nc3n2)cc1
.	5.0	CCOC(=O)c1sc2ncnc(N)c2c1C
.	-32.0	O=C1C(=Cc2ccc(-c3ccc(F)cc3F)o2)C(=O)c2ccccc21
-2.1	.	OCc1cccc2cccc(I)c12
.	2.0	COC(=O)c1ccccc1NS(=O)(=O)c1cc2c3c(c1)C(C)C(=O)N3CCC2 (stereo unspecified)
2.1	21.0	CC(=O)Nc1ccc(NC(=O)c2ccc(-c3ccc(Cl)cc3Cl)o2)cc1
3.0	4.0	CCn1c(CC(=O)Nc2ccccc2C)nnc1SCC(=O)N1CCN(c2ccccc2)CC1
.	13.0	O=C(NC1CCCC1)c1ccc(-n2cnc3cccnc32)cc1
-0.3	11.0	CCOc1ccc(CCNS(=O)(=O)c2c(C)cc(C)cc2C)cc1OCC
-0.5	.	Nc1ccc(C(=O)Nc2nc3ccc(NC(=O)c4ccccc4)cc3s2)cc1
-0.2	1.0	Oc1ccc2ccccc2c1CN1CCN(c2ccccn2)CC1
-0.1	.	CS(=O)(=O)N(Cc1ccccc1)Cc1ccccc1N1CCC(C(=O)O)CC1
1.0	-11.0	O=C1CCCN2N=C(SCC(=O)c3ccc(Cl)cc3)SC2=N1
.	9.0	CCC(C)N=Cc1c(NCc2ccco2)nc2c(C)cccn2c1=O (stereo unspecified)
.	-8.0	CSCCNC(=O)Nc1c(-c2c(Cl)cccc2Cl)noc1C
.	-7.0	Cc1ccc(S(=O)(=O)c2cc(O)ccc2O)cc1C
.	13.0	Cn1c(=O)cc(OCC(=O)NCCCN2CCCCCC2)c2ccccc21
1.0	9.0	O=C(C1c2ccccc2Oc2ccccc21)N1CCC(c2ccccc2)C1 (stereo unspecified)
.	-14.0	CC(N)c1ccc(S(N)(=O)=O)cc1 (stereo unspecified)
-0.6	-11.0	CN(c1ccccc1)S(=O)(=O)c1cccc(C(=O)N2CCCCCC2)c1
.	-3.0	CCCC(=O)Nc1c2c(nn1-c1cccc(Cl)c1)CS(=O)(=O)C2
.	5.0	CCc1cccc(C)c1NC(=O)COC(=O)C1CC(=O)N(c2ccc(Br)cc2)C1 (stereo unspecified)
0.1	.	CCCc1c(C(=O)Nc2ccc(F)cc2)cnn1-c1ccccc1
0.8	-1.0	O=c1cc(O)nc(-c2ccccc2)[nH]1
4.6	1.0	C/C=C/C(=O)NC(C)c1ccccc1 (stereo unspecified)
-0.2	11.0	COC(=O)C1OC2(CCCC2)OC1C(=O)OC (stereo unspecified)
-1.8	.	CCOC(=O)COc1cccc(C(C)=O)c1
-1.4	13.0	CCOC(=O)c1cc(NC(=O)c2ccc3c(c2)OCO3)cc(C(=O)OCC)c1
.	-3.0	Cc1cc(NC(=O)CS(=O)(=O)c2cn(Cc3ccccc3Cl)c3ccccc23)no1
.	-13.0	Cc1cc(O)c(C=Nc2cccc(C(F)(F)F)c2)c(=O)o1
-0.1	.	Cc1nc2cc(NC(=O)c3ccc(S(=O)(=O)N4CCCCC4)cc3)ccc2s1
2.1	.	O=c1oc(/C=C/c2ccco2)nc2sc3c(c12)CCCC3
2.5	3.0	O=C(O)C1CCCN1C(=O)/C=C/c1ccco1 (stereo unspecified)
1.5	4.0	CCS(=O)(=O)Nc1ccc(C(=O)Nc2cc(C)ccc2OC)cc1
-3.2	16.0	Nc1ccc(-n2nncc2-c2ccccc2)cc1
1.6	5.0	O=C(Nc1ccccc1C(=O)OCc1c(F)cccc1Cl)c1ccco1
-1.0	3.0	O=C(N1CCOCC1)N1CCC(c2ccc(F)cc2)CC1
.	-19.0	CCCOC(=O)c1cccc(NC(=O)C23CCC(C)(C(=O)O2)C3(C)C)c1 (stereo unspecified)
.	16.0&-11.0	CC(C)C1C(C#N)=C(N)SC(N)=C1C#N
1.2	0.0	O=C(Nc1ccccc1)C1CCN(S(=O)(=O)c2ccccc2)CC1
-0.8	.	CC(O)(P(=O)(O)O)P(=O)(O)O
0.5	-17.0	COc1ccc(OCc2nnc3n2CCC3)cc1
-2.1	.	ONC(=Nc1ccc(Cl)cc1Cl)c1cnccc1C(F)(F)F
0.3	-6.0	CSc1nsc(NC(=O)OCc2ccc(Cl)cc2)n1
.	-5.0	Cc1n[nH]c(C)c1SCC(=O)O
.	-16.0	COC(=O)c1sccc1NC(=O)C1CCCN(S(=O)(=O)N2CCCCCC2)C1 (stereo unspecified)

Later entries
MgrA DNA FP	S aureus helic	Compound
1.6	.	CCOC(=O)c1ccc(N=C2SC(C(=O)Nc3ccc(C(=O)OCC)cc3)CC(=O)N2C)cc1 (stereo unspecified)
1.5	.	CC(C)CC(C(=O)N1CCOCC1)N1Cc2ccccc2C1=O (stereo unspecified)
4.3	.	O=C(On1c(-c2ccccc2)nc2ccccc2c1=O)c1ccc(F)cc1
-1.0	.	O=C(Nc1nc(-c2cc3ccccc3oc2=O)cs1)c1cc(=O)c2ccccc2o1
1.2	39.0	CC(O)CN=c1cc(-c2ccccc2)oc2ccc(Cl)cc12 (stereo unspecified)
1.2	9.0	CCC(CC)c1nnc(NC(=O)COc2ccc3c(c2)OCO3)s1
-0.9	-3.0	CNC(=O)c1ccc(Cn2c(SCc3ccc(F)cc3)nc3ccncc32)cc1
.	2.0	Cc1sc2nc(SCC(=O)NCCO)nc(N)c2c1C
-2.5	.	CCN1C(=O)C(=Cc2c(O)n(CC)c(=O)n(CC)c2=O)C(=O)N(CC)C1=O
.	-16.0	CCOC(=O)C1=C(C)N=C(SC)N(C)C1c1ccccc1 (stereo unspecified)
-5.8	0.0	O=C(NC1CCCCC1)NC1(C(=O)N2CCC(O)CC2)CCCCC1
0.3	9.0	CCN(CC)CC#Cc1cccc(C)c1
-1.1	-4.0	Clc1ccc(-c2cn3ccccc3n2)cc1
-0.2	4.0	CC(C)OC(=O)CSc1nc2cc3c(cc2cc1C#N)OCO3
-1.6	10.0	COc1ccc2cc3cc(C(=O)NCCCN4CCCCCC4)sc3nc2c1
-0.1	.	CC(C)c1cc(C(C)C)c(S(=O)(=O)n2ccnc2)c(C(C)C)c1
1.1&1.6	12.0&-6.0	C=CCn1c(=S)[nH]c2ccccc2c1=O
3.0	2.0	O=S(=O)(NCC1CCCO1)c1ccc2ccccc2c1 (stereo unspecified)
5.5	21.0	CC(C)C(=O)NC(c1ccc(Cl)cc1Cl)c1ccc2cccnc2c1O (stereo unspecified)
.	-25.0	O=C(CCCN1C(=O)/C(=C\c2ccco2)SC1=S)Nc1ccc2ccccc2c1

Entries of single compounds, looked up by structure. Order of screens: MgrA DNA FP | S aureus helic
Results for CC(C)OC(=O)CSc1nc2cc3c(cc2cc1C#N)OCO3 → -0.2 | 4.0
Results for CC(C)CC(C(=O)N1CCOCC1)N1Cc2ccccc2C1=O (stereo unspecified) → 1.5 | .

The listing continues.
MgrA DNA FP	S aureus helic	Compound
-1.9	16.0	N#CC(C#N)=C1C(C#N)=C(N)OC1c1ccccc1 (stereo unspecified)
-2.6	.	NNC(=O)Cc1cc(Br)sc1Br
-2.0	.	Cc1nc(-c2ccc(Cl)cc2)sc1-c1ccnc(N)n1
0.7	2.0	CC(NC(=O)CSc1ncccn1)c1ccccc1 (stereo unspecified)
-1.4	.	O=S(=O)(c1cccs1)n1ccc(-c2ccc3c(c2)CCO3)n1
.	-283.0	CCC(C)n1c(NC(=O)c2ccccc2)c(C#N)c2nc3ccccc3nc21 (stereo unspecified)
-1.2	.	O=S(=O)(NCCC1CC1(Cl)Cl)c1ccccc1 (stereo unspecified)
-0.4	-3.0	O=C(/C=C/c1ccc(Cl)cc1Cl)NCC1CCCO1 (stereo unspecified)
0.3	.	O=C(Oc1cccc(F)c1F)c1ccc2nonc2c1
.	-10.0	C=CCn1c(SCC(=O)Nc2ccc3[nH]c(=O)[nH]c3c2)nnc1-c1ccccc1F
-1.4	1.0	CCOC(=O)C1C(=O)OC(C)(C)C1C(=O)OCC (stereo unspecified)
-0.3	6.0	COc1ccc(-c2noc(CN(C)C(=O)c3ccccc3)n2)cc1
.	7.0	O=C1CCCN1CN(C(=O)c1ccccc1)c1cccc(Cl)c1
1.0	.	CCOC(=O)C1C(c2ccc(C(F)(F)F)cc2)C(C(=O)OCC)C(O)(C(F)(F)F)NC1(O)C(F)(F)F (stereo unspecified)
-2.3	.	NC(=O)c1ccc(-c2ncc3c(n2)-c2cc(F)ccc2OC3)cc1
.	3.0	COc1cc(C2NC(=O)NC3=C2C(=O)N(Cc2ccc(F)cc2)C3)cc(OC)c1OC (stereo unspecified)
.	13.0	O=C(/C=C/c1cccs1)Nc1scc(-c2ccccc2)c1C(=O)O
.	-13.0	CCC1CCCCN1C(=S)NC1CCCCC1 (stereo unspecified)
-0.8	-7.0	c1ccc(-n2c3c(c4ccccc42)CCC3)cc1
.	-12.0	COc1cc(/C=N/NC(=O)CC2(C)SCCS2)ccc1O
.	-2.0	O=C(/C=C(\O)c1ccccc1)C(=O)Nc1ccccn1
.	18.0	Cc1ccc2c(c1)c(C1=NC(=S)NC1=O)c(O)n2C
.	11.0	CC(C)C(=O)N(Cc1ccccn1)c1nc2ccccc2s1
.	1.0	CCN(CC)c1ccc(N)c(C)c1
.	-15.0	CCOC(=O)Cc1nnc(NC(=O)C(CC)Sc2nc(C)cc(C)n2)s1 (stereo unspecified)
.	-17.0	CC1=C(C(=O)Nc2ccccc2)C(c2cccs2)C(C#N)=C(SCC(=O)Nc2ccc(F)cc2)N1 (stereo unspecified)
2.1	.	O=C(NC(=O)c1c(Cl)cccc1Cl)Nc1cc(C(F)(F)F)cc(C(F)(F)F)c1
.	1.0	CC(=O)Nc1nnc(SCc2ccccc2)s1
-0.9	19.0	Cc1ccccc1NC(=O)c1cnn2ccccc12
-2.2	14.0	CC(=O)N[C@H]1[C@H](Oc2nc3cc(C)ccc3o2)O[C@H](CO)[C@@H](O)[C@@H]1O
5.2	.	COc1ccc(C2CC(c3c(-c4ccccc4)c4cc(Br)ccc4[nH]c3=O)=NN2C(=O)CCC(=O)O)cc1 (stereo unspecified)
0.9	.	CCc1ccc(-n2[nH]nnc2=S)cc1
.	-4.0	Cc1cccc(C(=O)NCC(=O)N2CCN(S(=O)(=O)/C=C/c3ccccc3)CC2)c1
.	30.0	CCOC(=O)C1=C(CC)Nc2ccccc2N=C1NC(=O)Nc1ccccc1OC
1.0	7.0	N#Cc1nc(Cc2ccccc2)oc1N1CCC(Cc2ccccc2)CC1
1.4	-4.0	N#Cc1cccc(NC(=O)C23CC4CC(CC(Cl)(C4)C2)C3)c1
0.1	4.0	O=C(CSc1nnnn1-c1ccccc1)c1ccccc1
.	-5.0	CCOC(=O)c1ccc(NC(=O)n2ncc3cc(Cl)ccc32)cc1
.	-16.0	Cc1noc(C)c1CSCC(=O)Nc1c2ccccc2n2c(C)nc3ccccc3c12
.	9.0	Cn1c(=NC(=O)CSCC(=O)N2CCN(c3ccccc3)CC2)sc2ccccc21
-0.4	.	COc1cc(NC(=O)c2cnn3c2NC(c2ccc(Br)cc2)CC3C(F)(F)F)cc(OC)c1OC (stereo unspecified)
.	10.0	N#CCCS(=O)(=O)c1ccc(Cl)cc1
.	28.0	O=C(c1ccc2nc[nH]c2c1)N1CCN(C/C=C/c2ccccc2)CC1
0.7	6.0	CCS(=O)(=O)CCSc1nc(C)cc(C)n1

Grouped by structure: the entries above containing two or more sulfur atoms (15)
MgrA DNA FP	S aureus helic	Compound
.	-3.0	CN1C(=O)/C(=C/C2=Cc3ccccc3OC2)SC1=S
1.0	-11.0	O=C1CCCN2N=C(SCC(=O)c3ccc(Cl)cc3)SC2=N1
-0.1	.	Cc1nc2cc(NC(=O)c3ccc(S(=O)(=O)N4CCCCC4)cc3)ccc2s1
0.3	-6.0	CSc1nsc(NC(=O)OCc2ccc(Cl)cc2)n1
.	-16.0	COC(=O)c1sccc1NC(=O)C1CCCN(S(=O)(=O)N2CCCCCC2)C1 (stereo unspecified)
.	2.0	Cc1sc2nc(SCC(=O)NCCO)nc(N)c2c1C
.	-25.0	O=C(CCCN1C(=O)/C(=C\c2ccco2)SC1=S)Nc1ccc2ccccc2c1
-1.4	.	O=S(=O)(c1cccs1)n1ccc(-c2ccc3c(c2)CCO3)n1
.	13.0	O=C(/C=C/c1cccs1)Nc1scc(-c2ccccc2)c1C(=O)O
.	-12.0	COc1cc(/C=N/NC(=O)CC2(C)SCCS2)ccc1O
.	-15.0	CCOC(=O)Cc1nnc(NC(=O)C(CC)Sc2nc(C)cc(C)n2)s1 (stereo unspecified)
.	-17.0	CC1=C(C(=O)Nc2ccccc2)C(c2cccs2)C(C#N)=C(SCC(=O)Nc2ccc(F)cc2)N1 (stereo unspecified)
.	1.0	CC(=O)Nc1nnc(SCc2ccccc2)s1
.	9.0	Cn1c(=NC(=O)CSCC(=O)N2CCN(c3ccccc3)CC2)sc2ccccc21
0.7	6.0	CCS(=O)(=O)CCSc1nc(C)cc(C)n1

Assay outcomes as filed in PubChem BioAssay.
